Bioassay records as filed in PubChem.
Rce1 inhib = inhibitors of yeast Ras-converting enzyme | Q03530 | yeast membranes, quenched prenylated peptide cleavage fluorescence | calls only | 0.27% of 290,000 active | AID 2563;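 active = fall in fluorescence gain of 50% or more versus controls, with final raw signal at or below 3038400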;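 also: plate controls were neutral control wells for no effect and wells lacking membranes for full effect; tested at 10 µM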
Target sequence (Q03530 whole entry, looked up): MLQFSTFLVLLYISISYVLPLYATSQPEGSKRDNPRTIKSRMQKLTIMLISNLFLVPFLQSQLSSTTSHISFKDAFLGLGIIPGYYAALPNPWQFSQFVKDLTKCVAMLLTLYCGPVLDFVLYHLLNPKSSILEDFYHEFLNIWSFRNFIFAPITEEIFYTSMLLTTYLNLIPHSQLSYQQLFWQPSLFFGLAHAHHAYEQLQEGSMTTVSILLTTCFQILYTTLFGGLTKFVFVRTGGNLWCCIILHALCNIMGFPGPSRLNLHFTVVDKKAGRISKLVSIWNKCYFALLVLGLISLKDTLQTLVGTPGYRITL
MT1-MMP act inh = inhibitors of human MT1-MMP activation; HT1080 RFP-PRO-GFP cells, GFP/RFP ratio fluorescence, overnight; percent of plate control window, DMSO zero; GFP/RFP ratio change, % at 20 µM; 0.061% of 360,000 active; AID 651647;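 active = GFP/RFP ratio change of at least 30% with cell ATP level not reduced by more than half and red fluorescence within 50% of control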; also: strong numbers were not always called active
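Material – HT1080 RFP-PRO-GFP cells · Control set – DMSO wells and RFP-L50D-GFP cells · Incubation – overnight cell settling, then overnight compound exposure, 37 °C, 5% CO2 · Compound dosing – single-point 20 µM compound, 1% DMSO · Read-out – GFP/RFP fluorescence ratio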
CSC inhib = blocks cancer stem cells; inhibition, % at 7.5 µM; cancer stem cell-like cells viability, luminescence; 1.1% of 300,000 active;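 active = mean at 75% or more and at least half the replicates too; tested in HMLE shEcad cells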;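 also: 0% = median of negative and 100% = median of positive control wells; the first replicate is given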
Env fusion inh = inhibitors of HIV Env-mediated cell fusion; AID 651610; 1.1% of 360,000 active; HeLa-JRFL Env/CEM21 cell fusion, luciferase; inhibition, % at 12.3 µM;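 active = mean replicate inhibition score of at least 50 and every replicate individually at or above 50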;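 also: 0% = plate neutral controls and 100% = maraviroc near 300 nM; one replicate is shown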
PABP polyA inh = PABP-poly(A) binding inhibition; P11940; PABP-poly(A) RNA binding, fluorescence polarization; inhibition, % at 35 µM; 1% of 290,000 active;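 active = 50% or more with normal probe brightness, or confirmed in later tests; about a fifth of its hits are not listed in these tables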;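 also: calls also rest on retests at 20 µM and on dose response follow-up; controls were probe without protein and protein plus probe with vehicle; some compounds called inactive have numbers as strong as hits; many hits fall short of the cut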
eIF4H FP inh = inhibitors of RNA binding by human eIF4H; Q15056; eIF4H fluorescence polarization binding assay; inhibition, % at 35 µM; 0.94% of 290,000 active;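 active = 50% or more with normal probe brightness, or confirmed in later tests; about a fifth of its hits are not listed in these tables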;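 also: calls also rest on retests at 20 µM and on dose response follow-up; 0% = protein and probe with vehicle and 100% = probe without protein; strong numbers were not always called active; many hits fall short of the cut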
UUG fidelity = yeast start codon fidelity modulation | S. cerevisiae UUG-firefly luciferase reporter, luminescence/redox ratio | activity score, % at 18.7 µM | 0.13% of 350,000 active | AID 602363;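 active = replicate mean at a twofold rise or more, about +100% in these data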;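 also: firefly luciferase made from a UUG start codon reports start codon fidelity; reporter light over untreated wells divided by growth signal over untreated wells; some hits fall short of that in this replicate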
MT1-MMP act inh RFP = second read-out of MT1-MMP act inh, no call of its own (marks repeat the call); RFP signal change, %; measured here: RFP expression control read;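 0 = vehicle wells; hits needed this value within 50% of zero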
* = called active by the depositor; i = inactive; . = not tested or not shown.

Start of the listing, in advance (3 entries):
compound,Rce1 inhib,MT1-MMP act inh,MT1-MMP act inh RFP,CSC inhib,Env fusion inh,PABP polyA inh,eIF4H FP inh,UUG fidelity
COCCN(CCOC)c1nc(-c2ccc([N+](=O)[O-])cc2)nc2ccccc12,i,2.3,-9.2,6.1,1.2,8.9,-5.9,-19.9
O=C(COC(=O)CCS(=O)(=O)c1ccc(Cl)cc1)NC1CCCCC1,i,-8.4,-3.1,1.4,-26.8,-5.1,-2.6,-19.4
Cn1c(CCN2CCCC2)nc2cc(NS(=O)(=O)c3ccc(Cl)cc3)ccc21,i,-4.6,-5.5,36.5,-0.8,-11.7,-9.3,-17.2

Main list (from the top)
compound,Rce1 inhib,MT1-MMP act inh,MT1-MMP act inh RFP,CSC inhib,Env fusion inh,PABP polyA inh,eIF4H FP inh,UUG fidelity
COCCN(CCOC)c1nc(-c2ccc([N+](=O)[O-])cc2)nc2ccccc12,i,2.3,-9.2,6.1,1.2,8.9,-5.9,-19.9
O=C(COC(=O)CCS(=O)(=O)c1ccc(Cl)cc1)NC1CCCCC1,i,-8.4,-3.1,1.4,-26.8,-5.1,-2.6,-19.4
Cn1c(CCN2CCCC2)nc2cc(NS(=O)(=O)c3ccc(Cl)cc3)ccc21,i,-4.6,-5.5,36.5,-0.8,-11.7,-9.3,-17.2
COc1ccc(N2CCN(C(=O)C(=O)c3c[nH]c4ccccc34)CC2)cc1,i,3.3,1.5,-2.5,-7.7,10.9,-2.0,6.7
Cc1ccc(-c2nnc(SCC(=O)NC3CC3)n2N)cc1,i,4.4,5.2,8.0,2.0,-2.7,6.2,10.4
C#CCn1c(S(=O)(=O)Cc2ccc(C)cc2)nc(-c2ccccc2)c1-c1ccccc1,i,-17.2,-19.9,26.3,146.1*,-4.9,5.4,-20.0
O=C(O)c1ccc(N/N=C/c2cccc(F)c2)cc1,i,0.4,2.6,-1.0,.,21.6,7.1,.
CN(C)S(=O)(=O)N1CCC(Oc2ccc(C(=O)NCc3cnn(C)c3)cc2)CC1,i,2.4,-11.9,-10.1,26.5,10.9,-3.7,.
O=C(CCNS(=O)(=O)c1ccccc1C(F)(F)F)NCCCN1CCOCC1,.,-5.3,1.5,-16.4,-3.6,.,.,-1.5
CC(OC(=O)c1ccc(Cl)nc1)C(=O)NC1(C#N)CCCCC1 (configuration not stated),i,0.7,0.2,-8.6,-70.7,.,.,.
CNS(=O)(=O)c1cccc(C(=O)OCc2cc(=O)oc3c(C)c(O)ccc23)c1,i,-9.7,-9.7,6.8,1.3,13.4,13.2,-5.3
Cc1cc(C)n(-c2nc(SCC(=O)N3CCCC3)c3c4c(sc3n2)CCCC4)n1,i,0.8,-7.7,6.0,16.2,-12.4,-10.3,-17.3
COc1ccc(C(=O)COC(=O)c2nc3nccc(C)n3n2)cc1F,.,-0.7,3.8,.,7.5,.,.,-21.0
Clc1ccc(Cn2nc(-c3ccccc3)nc2-c2ccccc2)cc1,i,-3.2,-3.5,14.8,-15.9,1.7,-9.4,.
O=C(Oc1cccc(C(=S)N2CCOCC2)c1)c1ccc([N+](=O)[O-])cc1[N+](=O)[O-],i,-0.1,-0.8,-2.1,26.1,11.2,-2.6,.
Cc1ccc(-c2nc(C)sc2CC(=O)O)cc1,i,-1.8,0.7,-3.9,-59.3,17.0,9.6,4.9
COc1ccc(-c2csc(C3=C(O)CN(CCCN4CCCC4=O)C3=N)n2)cc1OC,i,6.0,6.6,-42.6,11.3,15.2,4.7,5.0
COc1ccc(N2CC(C(=O)NCc3cccnc3)CC2=O)cc1 (configuration not stated),i,4.9,3.2,7.6,.,1.1,-8.5,2.7
COc1ccc2c(CN(C)Cc3ccccc3)cc(=O)oc2c1,.,3.6,-0.7,.,-100.9,.,.,-19.9
O=C(NC1=C(NC2CCS(=O)(=O)C2)C(=O)c2ccccc2C1=O)c1ccccc1 (configuration not stated),i,-0.5,-24.8,45.4,56.6*,12.7,5.0,-1.6
Cn1c(SCC(=O)NCC2CCCO2)ncc(C(=O)Nc2ccccc2)c1=O (configuration not stated),i,-3.0,-2.0,-11.4,-12.3,.,.,-16.9
CCOC(=O)c1c(S(=O)(=O)Nc2ccc(F)cc2C)c(C)n(C)c1C,i,-0.5,0.6,-4.3,20.3,5.2,0.5,-3.0
CCOc1ccc(-c2csc3ncn(-c4ccc(OC)cc4)c(=O)c23)cc1,i,-6.0,-3.9,-0.7,9.3,4.3,0.2,-5.1
CCCNC(=O)C1(C)CCN(C(=O)c2c(F)ccc(C)c2F)C1 (configuration not stated),.,-4.0,4.0,.,3.4,.,.,-11.1
CN(C)[C@H]1CCN([C@@H]2CS(=O)(=O)N[C@H]2COCc2ccccc2)C1,.,-0.4,0.7,.,-159.0,.,.,10.5
O=C(NC(c1ccc(F)cc1)c1ccc2ccccc2n1)C1CCN(Cc2cccc(C(F)(F)F)c2)CC1 (configuration not stated),.,3.1,-20.3,.,74.6*,.,.,1.6
Cc1ccc2cc(C#N)c(N3CCCC3)nc2c1C,.,-9.5,-1.0,.,.,0.7,5.5,-14.7
O=C(Nc1ccc(N2CCCCCC2)cc1)c1ccccc1Cl,i,-5.9,-14.5,4.4,-132.2,8.4,2.2,-5.7
O=C(Nc1cccc(-c2ccc(F)cc2)c1)C1CCCN(Cc2cccnc2)C1 (configuration not stated),i,-3.5,-5.4,32.0,7.8,1.0,0.6,-12.4
CCOC(=O)N1CCN(S(=O)(=O)c2ccc(C(=O)Nc3nnc(CC)o3)cc2)CC1,i,-6.5,1.1,.,-6.7,-5.5,-2.9,-27.8
CCOc1ccccc1C(=O)n1nc2nc(C)cc(C)c2c1N,i,4.6,-2.7,-18.1,-5.8,-6.9,-18.1,-18.3
CC(C)[C@H](NC(=O)c1ccco1)C(=O)Nc1ccc(OC(F)F)cc1,i,-4.0,-3.2,-13.7,-6.4,-2.1,-4.6,.
C=C1CCN([C@H](C(=O)NCc2ccco2)C(C)C)S(=O)(=O)c2ccccc21,i,2.8,2.5,-5.0,28.2,5.0,-6.3,-17.5
COc1ccc(NC2CC(=O)N(c3ccc(C(=O)O)cc3)C2=O)cc1 (configuration not stated),i,6.8,7.7,19.4,-5.6,-11.2,-7.7,-3.5
O=C(c1ccc(Cn2cc(Br)cn2)o1)n1cccn1,i,1.5,2.5,-9.3,.,-0.9,2.7,0.3
S=C(NC1CC1)N1CCCc2ccccc21,i,0.4,10.6,5.3,-0.1,-2.5,9.7,-10.2
CCOC(=O)c1sc(NCCNc2nc(C)c(C(=O)OCC)s2)nc1C,i,.,.,-9.1,.,23.4,-3.4,.
Cc1ccc(C(=O)CNc2ccc(F)cc2)cc1,i,-1.7,3.5,4.2,-3.9,33.7,3.3,.
CCn1c(SCC(=O)NC2CCCCC2)nnc1C(C)NC(=O)c1ccccc1F (configuration not stated),i,-4.5,-4.0,9.2,-9.6,-4.7,4.4,-10.0
Cc1cccc(Oc2sc(C(=O)c3ccccc3)c(N)c2C#N)c1C,i,-5.8,-12.7,33.7,.,0.4,-6.4,.

Single entries from above.
Env fusion inh with `CCn1c(SCC(=O)NC2CCCCC2)nnc1C(C)NC(=O)c1ccccc1F` (configuration not stated) = -9.6
MT1-MMP act inh RFP with `COc1ccc2c(CN(C)Cc3ccccc3)cc(=O)oc2c1` = -0.7
MT1-MMP act inh RFP with `COc1ccc(C(=O)COC(=O)c2nc3nccc(C)n3n2)cc1F` = 3.8
CSC inhib with `CN(C)S(=O)(=O)N1CCC(Oc2ccc(C(=O)NCc3cnn(C)c3)cc2)CC1` = -10.1
UUG fidelity with `S=C(NC1CC1)N1CCCc2ccccc21` = -10.2
CSC inhib with `Cn1c(SCC(=O)NCC2CCCO2)ncc(C(=O)Nc2ccccc2)c1=O` (configuration not stated) = -11.4

Remaining list, next part:
compound,Rce1 inhib,MT1-MMP act inh,MT1-MMP act inh RFP,CSC inhib,Env fusion inh,PABP polyA inh,eIF4H FP inh,UUG fidelity
CC(C)[C@H](N)c1nnc(SC/C=C/c2ccccc2)o1,i,-4.2,-2.2,-7.1,-81.0,-0.6,-3.7,-13.4
Cc1cccc2cc(C3CC(c4ccco4)=NN3S(C)(=O)=O)c(Cl)nc12 (configuration not stated),i,1.0,-4.6,9.4,-1.4,5.6,-9.5,6.4
Cc1cccc(NC(=S)Nc2ccccn2)c1,i,1.3,-1.1,-0.1,-33.7,6.7,6.7,.
CCCCn1c(N)c(N(CC(C)C)C(=O)c2cc3ccccc3cc2OC)c(=O)[nH]c1=O,.,2.0,3.0,.,2.6,.,.,3.4
Cc1ccc(NC(=O)CSc2ncc3ccccn23)cc1,i,3.8,5.2,-8.8,2.2,-10.9,-6.5,-14.7
Cc1ccc(OS(=O)(=O)c2ccc(N3C(=O)CCC3=O)cc2)cc1,i,3.8,0.5,-5.6,-4.5,-0.8,6.6,5.7
CC(C)(C)C(=O)N1CCCC1C(=O)O (configuration not stated),i,0.0,5.4,-2.5,-27.8,13.0,-5.2,-14.3
O=C(Cc1ccc2c(c1)OCCO2)N1CCN(c2ccccc2)CC1,i,-4.1,1.8,-11.1,0.9,-1.7,6.8,-9.3
COc1ccc(C(=O)C2CCN(C(=S)NCC3CCCO3)CC2)cc1 (configuration not stated),i,0.7,-6.5,13.5,3.0,-5.9,-1.8,.
COc1cccc(N2CCN(C(=O)Cn3c(=O)oc4ccccc43)CC2)c1,i,-2.4,-2.2,-2.2,4.0,-5.5,-6.0,-6.4
COc1ccc2nc(NC(=O)c3ccc4ncsc4c3)sc2c1,i,4.1,-3.6,-7.6,.,-7.0,-0.1,-1.0
OC(CNCCc1ccccc1)c1ccccc1 (configuration not stated),i,-1.3,-0.6,-4.1,.,-4.2,-7.6,-16.5
COc1ccccc1NC(=O)CC(=O)c1ccccc1,i,5.8,6.9,-7.9,-27.8,0.8,-0.8,-8.9
CCN(CC)S(=O)(=O)c1ccc(Oc2ccccc2OC)cc1,i,1.5,-4.4,-7.6,13.7,-7.8,2.1,-5.7
CCCCOC1(c2ccccc2)NC(=S)NN=C1c1ccccc1 (configuration not stated),i,.,.,-32.0,.,-2.8,4.4,.
Cc1c(C)n(CC(O)CN(CCO)CCO)c2ccccc12 (configuration not stated),i,2.3,3.3,-6.9,-6.4,10.5,4.2,.
CC(CC(=O)c1ccccc1)=NCCCN=C(C)CC(=O)c1ccccc1,.,0.0,-1.3,.,2.8,.,.,-16.8
Cc1cc(-n2c(C)cc(C(=O)COc3ccc(F)c(F)c3)c2C)no1,.,3.6,-7.5,5.6,.,.,.,6.6
CC(Sc1nnc2ccccn12)C(=O)N1CCc2ccccc2C1 (configuration not stated),i,1.7,6.6,.,.,-7.5,1.0,.
CCOC(=O)c1cc(-c2ccc(OC)cc2)n(CCC(=O)NC2CCN(Cc3ccccc3)CC2)c1C,i,-4.5,-2.5,-4.6,-8.1,-14.2,-16.5,.
CN1CCN(c2ccc(S(=O)(=O)N3CCCCC3)cc2NC(=O)CCc2ccccc2)CC1,.,-1.7,4.1,.,-3.3,.,.,-4.2
COC(=O)[C@]1(C)N[C@H](c2ccc(-c3cccc(Cl)c3)c(OC)c2)[C@@H]2C(=O)N(C)C(=O)[C@@H]21,.,5.5,-5.4,.,8.2,.,.,10.8
COc1cccc(NC(=O)c2ccc3nsnc3c2)c1,i,-1.4,-3.4,-18.7,-49.9,6.7,-8.4,-3.6
CCC(C)COC(=O)C(C#N)c1nc2ccccc2nc1N1CCCCC1 (configuration not stated),i,-17.4,-7.7,8.9,18.7,11.6,-0.7,-14.6
